Screening data: PubChem BioAssay, several laboratories
Vif A3G = HIV-1 Vif–A3G interaction blockers – biochemical, TR-FRET, GST-Vif 1-94, biotin-A3G peptide, dose response retest, primary screen (AID 1117319); TR-FRET GST-Vif / biotin-A3G peptide binding; higher % means a stronger effect; test concentration not given here; strong numbers were not always called active; inhibition, %; hits with a dose series show IC50 in µM; hit rate 0.57% among 260,000;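 active = above the screen mean plus three standard deviations and confirmed in dose response; inconclusive = results disagree or hit not tested in dose response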;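 also: Vif residues 1-94 fused to GST binding biotinylated APOBEC3G peptide 110-148; 0% = full assay without inhibitor and 100% = GST in place of GST-Vif; retest series ran down from 100 µM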
ALR inh = blocks human ALR sulfhydryl oxidase activity | P55789 | purified ALR, DTT oxidation, H2O2 HRP-luminol luminescence | inhibition, % (no concentration beside the values) | hit rate 3.8% among 290,000 | AID 485317;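 active = mean and each replicate at 75% or more; inconclusive = only one of the two met; inactive = neither met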;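 also: stock transfer was 7.5 nL into about 7.5 µL; 0% = neutral wells and 100% = wells with inactivated enzyme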
Target sequence (P55789 whole entry, looked up): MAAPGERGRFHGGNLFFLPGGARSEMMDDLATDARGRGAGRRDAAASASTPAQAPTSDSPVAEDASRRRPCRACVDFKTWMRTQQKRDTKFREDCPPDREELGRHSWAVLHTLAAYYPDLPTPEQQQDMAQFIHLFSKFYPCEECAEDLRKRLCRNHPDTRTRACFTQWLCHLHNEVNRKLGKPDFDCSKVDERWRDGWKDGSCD
HNF4A DNA FP = change in binding of human HNF4 alpha to DNA; P41235; hit rate 0.3% among 360,000; HNF4a-FITC DNA binding, fluorescence polarization, 1 h; activity change, % at 10 µM; in the data active = activity change above about 30%, passing the limit was not always enough;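 also: controls were the assay level and a saturating level of protein; the project sought stronger binding though the title names inhibitors; some compounds called inactive have numbers as strong as hits; positive values seem to mean higher polarization but the record does not say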
Target sequence (P41235 whole entry, looked up): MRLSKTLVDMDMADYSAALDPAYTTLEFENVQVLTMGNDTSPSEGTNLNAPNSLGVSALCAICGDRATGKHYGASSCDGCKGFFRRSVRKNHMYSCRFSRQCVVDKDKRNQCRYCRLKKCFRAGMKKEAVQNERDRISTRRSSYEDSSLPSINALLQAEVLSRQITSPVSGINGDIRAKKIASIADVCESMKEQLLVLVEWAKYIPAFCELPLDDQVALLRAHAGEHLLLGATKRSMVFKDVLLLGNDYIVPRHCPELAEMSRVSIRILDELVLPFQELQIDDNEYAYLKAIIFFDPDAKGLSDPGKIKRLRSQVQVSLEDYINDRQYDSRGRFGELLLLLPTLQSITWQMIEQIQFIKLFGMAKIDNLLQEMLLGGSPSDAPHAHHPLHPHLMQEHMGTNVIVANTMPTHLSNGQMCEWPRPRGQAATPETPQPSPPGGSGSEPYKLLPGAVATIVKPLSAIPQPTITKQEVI
Ecoli growth = inhibitors of Escherichia coli growth; OD600, 23 h; hits give low values; hit rate 0.21% among 330,000; OD600 absorbance (test concentration not listed); AID 1053175;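 active = OD600 absorbance below the run mean of sample wells minus 3.6 SD, in any replicate, cut at about 0.56 in these data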;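 also: stock transfer was 300 nL into about 60 µL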
Ecoli rRNA inh = selective bacterial rRNA inhibition in E. coli. E. coli WT GFP vs humanized-ribosome RFP mutants, fluorescence, 24 h; hits give low values; DMSO median 0, no signal -100. GFP signal change (wild-type ribosome), % (test concentration not listed). hit rate 1.6% among 350,000. AID 720706;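 active = significant combined selectivity score with lowered wild-type GFP, culture density cut under 30%, mutant RFP and density less affected; inactive = any of these conditions unmet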; also: one replicate is shown; some compounds called inactive have numbers as strong as hits
FGF22 binding = binders of recombinant human FGF22 by thermal shift; SYPRO orange fluorescence; percent of sucrose octasulfate shift, DMSO zero; AID 651658; calls only at 9.99 µM; hit rate 1.5% among 340,000; Q9HCT0;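 active = melting point raised past a set limit in the mean and every replicate; inconclusive = no clear call; three in four hits are not shown here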
Target sequence (Q9HCT0 whole entry, looked up): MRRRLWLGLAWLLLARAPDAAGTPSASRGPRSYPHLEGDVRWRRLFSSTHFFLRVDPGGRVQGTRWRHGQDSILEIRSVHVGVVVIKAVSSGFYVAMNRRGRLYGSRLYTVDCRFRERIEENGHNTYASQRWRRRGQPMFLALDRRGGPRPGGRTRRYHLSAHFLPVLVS
AF4-AF9 inh = inhibitors of human MLL-AF4/AF9 interaction; AlphaScreen, biotin-AF4 peptide binding to FLAG-AF9; hit rate 0.47% among 350,000; inhibition, % at 10 µM; P42568; AID 651704;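 active = every replicate reaching a set inhibition limit, whatever the replicate mean, cut at about 25% in these data; inconclusive = mean inhibition reaches that limit but some replicates miss it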;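 also: 0% = plate neutral control median and 100% = total signal loss; the record names both 10 and 1 µM as test concentration; the first replicate is given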
Ecoli rRNA inh OD600 = second read-out of Ecoli rRNA inh, no call of its own (marks repeat the call); OD600 change, %; measured here: OD600 growth;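 optical density of the mix in the first replicate; 0 = DMSO median and -100 = no signal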
Ecoli rRNA inh RFP = second read-out of Ecoli rRNA inh, no call of its own (marks repeat the call); RFP signal change, %; measured here: RFP humanized mutant strains;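 first replicate; 0 = DMSO median and -100 = no signal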
The depositor's hits bear a star; i = inactive; ? = inconclusive; . = not tested or not shown; & = joins results of further samples. An excerpt; rates above refer to the full screens.

Vif A3G | ALR inh | HNF4A DNA FP | Ecoli growth | Ecoli rRNA inh | Ecoli rRNA inh OD600 | Ecoli rRNA inh RFP | FGF22 binding | AF4-AF9 inh | compound
2% | -8 | -2.2 | 0.66 | -9 | -12 | -10 | i | -42 | O=C(COc1ncnc2ccccc12)Nc1ccc(Cl)c(S(=O)(=O)N2CCOCC2)c1
4% | -11 | 0.9 | 0.71 | . | . | . | i | 0.4 | O=C(Nc1ccccc1C(F)(F)F)C1CCN(C(=O)Cc2ccccc2)CC1
2% | -8 | 2.4 | 0.72 | . | . | . | . | . | COc1ccc(S(=O)(=O)NCCC(=O)NCc2cccs2)cc1
5% | -11 | -1.2 | 0.69 | . | . | . | . | . | Nc1nc(SCC(=O)C23CC4CC(CC(C4)C2)C3)n[nH]1
1% | -3 | 0.8 | 0.72 | -2 | -5 | 2.4 | i | 3.2 | COCCn1c(C)cc(C(=O)COC(=O)c2cccnc2SC)c1C
. | . | . | . | 1 | 9 | 1.6 | i | 3.3 | COc1ccccc1CNC(=O)C[C@H]1CC[C@@H]2[C@H](COC[C@H](O)CN2C(=O)Nc2ccc(F)cc2)O1
. | . | . | . | -7 | -19 | 0.4 | i | 0.0 | C[C@@H]1CN([C@@H](C)CO)C(=O)Cc2cc(NC(=O)CCC(F)(F)F)ccc2O[C@@H]1CN(C)Cc1ccc(Cl)c(Cl)c1
. | . | -2.8 | . | -60 | -78 | -22 | i | 1.4 | CC(C)(C)c1ccccc1NC(=O)Nc1nc(C(N)Cc2ccc(F)cc2)cs1 (centres undefined)
. | . | 1.8 | 0.71 | -16 | -19 | -1.3 | i | 6.1 | CCOc1ccc(CN2CCCC(CO)(Cc3ccc(F)cc3)C2)cc1 (centres undefined)
-2%&-8% | -7 | 0.8 | 0.71 | . | . | . | . | . | COC(=O)c1cc(Br)c(=O)n(CCc2ccc(F)cc2)c1
. | 17 | 0.2 | 0.68 | 4 | 7 | -2.8 | i | 1.7 | Cc1ccc(-c2n[nH]c(=S)c3ccccc23)cc1S(=O)(=O)NCC1CCCO1 (centres undefined)
. | . | -0.3 | 0.67 | -15 | -5 | -1.2 | i | 0.9 | COc1ccc(NC(=O)COC(=O)[C@@H]2CCCN2S(=O)(=O)c2ccccc2F)c(OC)c1
. | . | . | . | 0 | 9 | 1.6 | i | 3.0 | COc1ccc2c3c(n(C)c2c1)[C@H](CO)NCC31CN(C(=O)c2ccc(F)cc2)C1
-5% | -5 | -0.6 | 0.75 | . | . | . | . | . | CCCCCCNc1c(C(=O)OCC)c(=O)[nH]c2ccccc12
? | 22 | -4.4 | . | -18 | -24 | -0.3 | i | 0.2 | Cc1ccc(NC(=O)CN2C(=O)S/C(=C\c3cc(C)n(-c4cccc(C(=O)O)c4)c3C)C2=O)cc1
-6% | -7 | -3.3 | 0.65 | -5 | -3 | 9.7 | i | 2.1 | Cc1c(C)c(C)c(S(=O)(=O)Nc2ccc3[nH]c(=O)[nH]c3c2)c(C)c1C
-5% | -2 | -1.2 | 0.68 | -14* | -12* | 9.1* | i | 4.0 | CN(C(=O)COC(=O)c1cnc(Cl)c(Cl)c1)C1CCCCC1
. | 2 | -0.7 | 0.68 | . | . | . | . | . | CCOC(=O)c1nnc(-c2ccc(C)cc2)nc1N1CCSCC1
5% | . | -2.0 | 0.72 | 4 | 3 | -2.8 | i | -1.0 | N#Cc1ccc(S(=O)(=O)NC[C@H]2O[C@@H](n3cnc4c(N)ncnc43)[C@H](O)[C@@H]2O)cc1
1% | -2 | 2.3 | 0.66 | 12 | -1 | -1.9 | i | 1.7 | CCn1cc(S(=O)(=O)c2cccc(C)c2)c(=O)c2cc(F)c(N3CCN(C)CC3)cc21
-2% | -28 | -1.6 | 0.7 | 4 | 3 | 0.3 | i | -1.6 | CCn1c(SCC(=O)Nc2cc(C)on2)nc2sc3c(c2c1=O)CCCC3
-2% | -8 | 3.8 | 0.73 | 6 | 2 | 2.5 | i | -0.5 | Cc1c(C(=O)NC2CCCCC2)oc2ccc(F)cc12
1% | -1 | 0.1 | 0.67 | 3 | 8 | -1.9 | i | -1.1 | Cc1ccc(S(=O)(=O)N(C)C)cc1NC(=O)COC(=O)C1CC(=O)N(c2ccc3c(c2)OCCO3)C1 (centres undefined)
9%&21% | 3 | -4.5&-3.5 | 0.77 | 7 | 8 | 4.8 | i | -0.1 | COc1ccccc1N1C(N)=NC(N)=NC1(C)C
8% | 31 | -1.4 | 0.63 | -49 | -70 | -17 | i | 11 | COc1ccc(O)c(-c2cc(-c3ccccc3Cl)[nH]n2)c1
. | . | . | . | 4 | 7 | -1.2 | i | -3.6 | C[C@@H]1CN([C@H](C)CO)C(=O)c2cc(NS(=O)(=O)c3cccs3)ccc2O[C@H]1CN(C)C(=O)Nc1cccc2ccccc12
. | -15 | -2.2 | 0.71 | . | . | . | . | . | O=C1C2CCc3ccccc3C2N1c1ccccc1 (centres undefined)
. | 0 | 4.1 | 0.69 | 11 | 16 | -0.9 | i | -0.7 | Cc1ccc(C(=O)Nc2nc(C)c(C(=O)N(C)C)s2)o1
3% | 0 | 1.5 | 0.7 | 7 | -1 | -8.0 | i | -1.9 | O=C(O)c1cnn(-c2ccccc2)c1C(F)(F)F
. | . | . | . | -3 | -19 | 10 | i | 2.2 | Cc1noc(C)c1NC(=O)Nc1ccc2c(c1)C(=O)N([C@H](C)CO)C[C@@H](C)[C@@H](CN(C)Cc1ccc(Cl)c(Cl)c1)OCCCC[C@H](C)O2
26% | 0 | 1.5 | 0.7 | . | . | . | . | . | COc1ccc(C)cc1NC(=S)N1CCN(S(C)(=O)=O)CC1
>100µM* | . | 0.3 | 0.67 | . | . | . | . | . | Cc1ccc(N2C(=O)[C@@H]3[C@H](C2=O)[C@H]2C=CC=NN2[C@@H]3C(=O)Nc2ccc(Cl)cc2)cc1
? | -19 | 3.9 | 0.76 | . | . | . | . | . | CCS(=O)(=O)Nc1ccc(-c2nnc(SCC(=O)OC)o2)cc1
. | . | . | . | -1 | -7 | -0.9 | i | -3.7 | C[C@H](CO)N1C[C@H](C)[C@@H](CN(C)Cc2ccncc2)Oc2c(NC(=O)c3cnccn3)cccc2C1=O
5% | -16 | 1.4 | 0.72 | . | . | . | . | . | Cc1ccc(SCC2(O)CCN(S(=O)(=O)c3ccc(Cl)cc3)CC2)cc1
. | . | . | . | 4 | 2 | -0.6 | i | -0.9 | CC(C)NC(=O)Nc1ccc2c(c1)C(=O)N([C@H](C)CO)C[C@@H](C)[C@@H](CN(C)C)O2
6.1µM* | . | 2.0 | 0.77 | 7 | 17 | -2.3 | i | 31* | CN(C)c1ccc(NC(=O)Cn2cc3c(n2)CCCC3)cc1
? | 0 | 1.0 | 0.71 | . | . | . | . | . | Cc1ccc(/C=C2\SC(N3CCN(C(c4ccccc4)c4ccccc4)CC3)=NC2=O)o1
4% | 0 | 0.5 | 0.73 | . | . | . | . | . | CCN(CC)CCNC(=O)c1ccc2c(c1)ncn2C1CCCCC1
-3% | 0 | -1.8 | 0.51* | . | . | . | . | . | COC(=O)c1ccc(NC(=O)Nc2ccc(F)cc2)cc1
. | -6 | 1.0 | 0.68 | 14 | 7 | -5.8 | i | 4.4 | Cn1cnnc1SCC(=O)Nc1cccc(S(=O)(=O)N2CCOCC2)c1
. | . | 1.7 | . | . | . | . | i | -8.0 | CCCC(C)(C)C(=O)N1CCC1(C)C(=O)Nc1ccc2c(c1)OCCO2 (centres undefined)
3% | 2 | 1.0 | 0.77 | 18 | 7 | -8.6 | i | 7.5 | COc1ccc(Br)cc1C(=O)Nc1ccccc1-c1ccccc1
. | . | . | . | -2 | 4 | -1.3 | i | -4.1 | CC(=O)N1CC[C@@H]2[C@H]1c1cc(-c3ccccc3)ccc1N[C@@H]2CO
. | . | . | . | -1 | -1 | 2.0 | i | -38 | CO[C@H]1CN(C)C(=O)c2ccc(NC(=O)C3CCCC3)cc2OC[C@@H](C)N(S(C)(=O)=O)C[C@@H]1C
4% | -3 | 1.1 | 0.65 | -6 | -4 | 3.5 | i | 2.6 | COc1ccc(CNC(=O)CCSCc2cccc(F)c2)cc1
. | . | . | . | -2 | 0 | 3.5 | i | -2.4 | CC(C)CC#Cc1cnc2c(c1)C(=O)N([C@@H](C)CO)C[C@@H](C)[C@H](CN(C)C(=O)c1ccccc1)O2
. | . | . | . | 3 | 12 | 1.8 | i | -1.1 | N#C[C@@H]1[C@H](c2ccccc2)[C@@H](CO)N1C(=O)c1cccnc1
. | . | -4.4 | 0.7 | 2 | 15 | -0.8 | i | 1.0 | COC(=O)CCCN=C1SCCN1Cc1ccccc1
. | . | 2.2 | . | -7 | -8 | -3.8 | i | -2.7 | Cc1c(C(=O)NCc2ccc3c(c2)OCCO3)sc(=O)n1Cc1ccccc1C(F)(F)F
16% | 4 | -3.3 | 0.61 | . | . | . | . | . | CCCCNC(=O)C1CCCNC1=O (centres undefined)
-18% | -6 | -1.8 | 0.73 | 3 | 7 | 0.0 | i | -0.2 | COc1ccc2c(C)cc(SCC(=O)Nc3nsc(-c4ccc(C)cc4)n3)nc2c1
. | -8 | -0.7 | 0.7 | 10 | 6 | -0.6 | i | -5.4 | Cc1ccn2cc(CCNS(=O)(=O)c3ccc([N+](=O)[O-])cc3)nc2c1
1% | 1 | -1.4 | 0.67 | -4 | -1 | 1.6 | i | -1.8 | O=C(c1sccc1Cl)N1CCN(Cc2ccc3c(c2)OCO3)CC1
5% | 4 | -7.6 | 0.67 | . | . | . | . | . | c1csc(-c2nnc(-c3ccc(N4CCOCC4)cc3)o2)c1
. | 1 | -1.7 | 0.68 | 11 | 10 | -1.2 | i | -1.2 | CC(Oc1ccc([N+](=O)[O-])cc1)C(=O)NCCCN1CCOCC1 (centres undefined)
-6% | . | 0.4 | . | -11 | -14 | 2.4 | i | -4.2 | N#Cc1ccccc1S(=O)(=O)N1CCN(C(=O)CN(Cc2ccco2)Cc2cccs2)CC1
7% | 7 | 1.6 | . | 2 | 5 | 1.0 | i | 4.6 | O=C(O)c1ccc(N2C(=O)/C(=C/C=C/c3ccccc3)SC2=S)cc1
-2% | -4 | 1.9 | 0.73 | 9 | 7 | -0.2 | i | -1.4 | COc1cc(OC)c(C(=O)NCCCN2CCOCC2)cc1OC

Molecules shown so far with a CF3 group (4):
Vif A3G | ALR inh | HNF4A DNA FP | Ecoli growth | Ecoli rRNA inh | Ecoli rRNA inh OD600 | Ecoli rRNA inh RFP | FGF22 binding | AF4-AF9 inh | compound
4% | -11 | 0.9 | 0.71 | . | . | . | i | 0.4 | O=C(Nc1ccccc1C(F)(F)F)C1CCN(C(=O)Cc2ccccc2)CC1
. | . | . | . | -7 | -19 | 0.4 | i | 0.0 | C[C@@H]1CN([C@@H](C)CO)C(=O)Cc2cc(NC(=O)CCC(F)(F)F)ccc2O[C@@H]1CN(C)Cc1ccc(Cl)c(Cl)c1
3% | 0 | 1.5 | 0.7 | 7 | -1 | -8.0 | i | -1.9 | O=C(O)c1cnn(-c2ccccc2)c1C(F)(F)F
. | . | 2.2 | . | -7 | -8 | -3.8 | i | -2.7 | Cc1c(C(=O)NCc2ccc3c(c2)OCCO3)sc(=O)n1Cc1ccccc1C(F)(F)F
